# HPGD block – inhibitors of human 15-hydroxyprostaglandin dehydrogenase (HPGD); Potency, µM, inactives show at the top dose activity change, negative = inhibition, usual class: inhibitors; actives 4.3% (n = 150,000); AID 894; purified HPGD, NADH fluorescence kinetic, PGE2 substrate; active = well fitted inhibition curve with a large enough effect (not every such curve was filed as active); inconclusive = small, poorly fitted or top-dose-only effect, or another doubt; inactive = no such curve, though single readings can be large or run the other way;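 note: top concentration of the series not given in the record; plate controls included wells without enzyme; inactives centre near -10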
# Target sequence (P15428 whole entry, looked up): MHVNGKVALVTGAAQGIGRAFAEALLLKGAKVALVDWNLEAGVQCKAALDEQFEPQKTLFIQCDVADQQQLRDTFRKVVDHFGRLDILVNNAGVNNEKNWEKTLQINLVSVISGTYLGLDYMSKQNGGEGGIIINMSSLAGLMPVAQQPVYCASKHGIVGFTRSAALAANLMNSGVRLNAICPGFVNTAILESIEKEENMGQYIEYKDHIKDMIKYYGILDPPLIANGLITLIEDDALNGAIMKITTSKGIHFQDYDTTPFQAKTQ
#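 NADH formation kinetics: reaction with 30 uM PGE2 and 1 mM NAD+ (final), 20 nM enzyme, Tris-HCl pH 8 with Tween 20, after 15 min compound preincubation at room temperature. Fluorescence change, last versus first of five reads.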
# Starred values were filed as active, the others as inactive; u = inconclusive; & = joins results of further samples. % is set by controls: 0 for no effect and ±100 for the full control effect; potency is the fitted concentration of half-maximal effect. These rows are one share of the data; rates above refer to the full screens.
SMILES,HPGD block
COc1ccc(Oc2ncc3nc(C)c(=O)n(Cc4cccs4)c3n2)cc1,-9%
S=c1nc2ccccc2c2nc(-c3ccccc3)[nH]n12,-10%
C=C(C)C1CC=C(C)/C(=N/NC(=S)Nc2ccccc2)C1 (configuration not stated),-15%
O=C(c1ccc2ccccc2n1)N1CCN(c2ccccc2)CC1,1%
C=CCOc1ccc(/C=N/n2cncn2)cc1OC,-24%
O=C(O)C1Cc2[nH]cnc2C(c2ccccc2O)N1 (configuration not stated),-7%
O=C1CCCC2=C1C(c1ccc(Br)cc1)c1c([nH]c(=S)[nH]c1=O)N2 (configuration not stated),7.1µM*
Cc1ccc2nc3ccc(N4CCN(C)CC4)nn3c(=O)c2c1,-23%
CCCC1C(c2ccco2)NC(c2ccco2)CC1(C)O (configuration not stated),-3%
Cc1onc(-c2ccccc2Cl)c1C(=O)Nc1nc2ccc(S(C)(=O)=O)cc2s1,-11%
CCCCC(CC)COC1(c2ccccc2)OC(=O)c2ccccc21 (configuration not stated),-21%
CC(C)OC(=O)Cn1nnc2c(cnn2-c2ccccc2)c1=O,-14%
CCOC(=O)c1c(N2CCCCC2)c2ccccc2[nH]c1=O,-13%
CCC(SC1=NCCS1)C(=O)Nc1nnc(-c2ccccc2OC)s1 (configuration not stated),u
CCN(CC)c1ccc(C=Nc2cc(C)ccc2C)c(O)c1,-1%
CCOc1cccc(=O)c2c(C)n(Cc3ccco3)c(C)c12,u
C#CCSc1nnc(-c2sc(-c3ccccc3)nc2C)n1C,u
CCCc1[nH]n(-c2nc3ccccc3s2)c(=O)c1C=NCC1CCCO1 (configuration not stated),-20%
Cc1ccc(Cl)cc1NC(=O)COC(=O)C12CC3CC(CC(C3)C1)C2,-12%&-7%
Cc1cc(C(=O)CN2C(=O)CCC2=O)c(C)n1Cc1ccccc1,-10%
O=C(O)[C@@H]1[C@@H](C(=O)NCc2ccncc2)[C@@H]2C=C[C@@H]1O2,-9%
CCc1ccccc1N(C(=O)Cn1nnc2ccccc21)C(C(=O)NCCOC)c1ccco1 (configuration not stated),-9%
CCCCCc1nc2sc3c(c2c(=O)n1N)CCC3,-5%
CC1(c2ccc(OC(F)F)cc2)NC(=O)N(CC(=O)Nc2ccc3c(c2)OCO3)C1=O (configuration not stated),-17%
Cc1cc(NC(=O)COn2nnc3ccccc32)no1,-21%
SMILES,HPGD block
Cc1cc(OCC(=O)NC(C)C)cc(C)c1Br,-24%
COc1ccc(C(=O)Nc2nncs2)c(OC)c1,-12%
O=c1n(S(=O)(=O)c2cccc3cccnc23)c2ccccc2n1S(=O)(=O)c1cccc2cccnc12,3%
COc1ccc(C2NCCc3cc(OC)c(OC)cc32)cc1OC (configuration not stated),-11%
COc1ccccc1Cc1noc(-c2cc(Cl)ccc2OC)n1,-28%
CCOC(=O)c1cccc(NC(=O)CN2CCN(c3ccc(OC)cc3)CC2)c1,-8%
COc1cc2nc(N3CCNCC3)nc(N)c2cc1OC,u
Cc1ccc(C(=O)Nc2oc(-c3ccccc3)cc2C#N)cc1,u
CCOC(=O)c1c(-c2cccs2)csc1NC(=O)CC(C)C,u
Cc1noc(C)c1C(=O)N1CCC[C@@]2(CCN(c3ccccc3)C2)C1,-3%
O=C(CC1(O)C(=O)N(Cc2ccc3c(c2)OCO3)c2ccccc21)c1ccccc1 (configuration not stated),-8%
O=C(O)C1CCCN1C(=O)Oc1ccccc1 (configuration not stated),-2%
Nc1ccc2nc(-c3cccs3)[nH]c2c1,u
Cc1ccc(NC2CC(=O)N(c3ccc(C)cc3)C2=O)cc1 (configuration not stated),-8%
CCOCc1c(C(=O)OCC(=O)Nc2ccc(C)c(S(=O)(=O)N(C)C)c2)oc2ccccc12,-7%
O=C1CN(S(=O)(=O)c2ccc(F)cc2)CC(=O)N1CCc1ccccc1,u
CC(C)(C)C(=O)Nc1c2c(nc3c1CCC3)CCCC2,-9%
O=C1c2ccccc2C(=O)N1CCCCSc1nnc2c(Cl)cc(Cl)cn12,-9%
COc1ccccc1C(=O)Nc1ccc(Oc2ncnc3sc(-c4ccccc4)cc23)cc1,u
CCCn1c(=O)c2ccccc2n2c(SCC(=O)c3ccc(F)cc3)nnc12,-6%
CN(C)S(=O)(=O)c1cccc(C(=O)NC2CCCc3ccccc32)c1 (configuration not stated),-1%
CCOC(=O)c1c(C)cc(O)cc1O,-29%
CCOC(=O)CC(=O)Nc1ccc(Br)cc1C(=O)O,-11%
COC(=O)C1(C(=O)OC)Cc2conc2[C@H]1c1ccccc1,1%&-8%&-1%
CSCCC(Nc1ccc(S(=O)(=O)N2CCOCC2)cc1[N+](=O)[O-])C(=O)OCC(=O)NCC(C)C (configuration not stated),-8%

# Reformatted as labelled records: part of the list above
> CCOCc1c(C(=O)OCC(=O)Nc2ccc(C)c(S(=O)(=O)N(C)C)c2)oc2ccccc12
  HPGD block: -7%
> C=CCOc1ccc(/C=N/n2cncn2)cc1OC
  HPGD block: -24%
> Cc1ccc(C(=O)Nc2oc(-c3ccccc3)cc2C#N)cc1
  HPGD block: u
> Cc1cc(OCC(=O)NC(C)C)cc(C)c1Br
  HPGD block: -24%

# The listing picks up; the 3 compounds before the break are reprinted first.
SMILES,HPGD block
CCOC(=O)CC(=O)Nc1ccc(Br)cc1C(=O)O,-11%
COC(=O)C1(C(=O)OC)Cc2conc2[C@H]1c1ccccc1,1%&-8%&-1%
CSCCC(Nc1ccc(S(=O)(=O)N2CCOCC2)cc1[N+](=O)[O-])C(=O)OCC(=O)NCC(C)C (configuration not stated),-8%
Cc1cc(N2C(=O)C(=O)/C(=C(/O)c3ccc(F)cc3)C2c2ccc(F)cc2)no1 (configuration not stated),-7%
Cc1ccc2c(c1)C(C)CC(C)(C)N2C(=O)NC1CCCCC1 (configuration not stated),-10%
Cc1ccc(S(=O)(=O)NC2=NCN(C3CCCCC3)CN2)cc1,-3%
CCOc1ccc(C2OC(=O)Cc3cc(OC)c(OC)cc32)cc1 (configuration not stated),-10%
COc1ccc(CCN2C(=O)C(O)=C(C(C)=O)C2c2ccccc2OC)cc1OC (configuration not stated),-22%
CCSCCc1nnc(NC(=O)Nc2cccc(C(F)(F)F)c2)s1,-4%
CCN(CC)C(=O)n1cnc(-c2ccccc2)c1-c1ccccc1,-31%
O=C(O)c1ccc(-n2nnnc2Oc2ccccc2C(=O)N2CCOCC2)cc1,-3%
CC(c1ccco1)N(C(=O)c1cccs1)c1ccccn1 (configuration not stated),-7%
Cc1ccc(NC(=O)CCC(=O)c2ccc(F)cc2)cc1Cl,1%
COCCOC(=O)/C=C1/NC(=O)CS1,0%
O=C(CCN1CCN(c2ccccc2F)CC1)Nc1ccccc1F,0%
Cc1ccc(NC(=S)NNc2ncc(C(F)(F)F)cc2Cl)cc1,-10%
Cc1ccc(CSCCNS(C)(=O)=O)cc1,2%
COc1cc2c(cc1NC(=O)Nc1ccc(C)cc1)oc1ccccc12,u
O=C(Nc1nc(C2C3CC4CC(C3)CC2C4)cs1)c1cc2cc([N+](=O)[O-])ccc2oc1=O (configuration not stated),-6%
CCCOc1ccccc1C1NC(=O)NC(C)=C1C(=O)OCCOCC (configuration not stated),-5%
CCOc1cccc2oc(-c3ccccc3Cl)cc(=O)c12,45µM*
C/C(=N\O)c1ccccc1C(=O)O,-2%
Cc1ccc(OCc2ccoc2C(=O)O)cc1C,-12%
N#Cc1c(NC(=O)CSc2n[nH]c(Cc3ccccc3)n2)oc(-c2ccccc2)c1-c1ccccc1,u
COc1ccc(OC)c(-n2nnnc2SCC(=O)NCCc2ccccc2)c1,-24%
Cc1nc(-c2coc3c(CN(C)C)c(O)ccc3c2=O)cs1,u
Cc1cc(C)n(CC(=O)N2c3ccccc3Sc3ccccc32)n1,-4%
COc1ccccc1CN1CCCC2(CCN(C(=O)c3cc(C(F)(F)F)cc(C(F)(F)F)c3)CC2)C1,-3%

# The last 7 entries of the section before lead into the next:
SMILES,HPGD block
C/C(=N\O)c1ccccc1C(=O)O,-2%
Cc1ccc(OCc2ccoc2C(=O)O)cc1C,-12%
N#Cc1c(NC(=O)CSc2n[nH]c(Cc3ccccc3)n2)oc(-c2ccccc2)c1-c1ccccc1,u
COc1ccc(OC)c(-n2nnnc2SCC(=O)NCCc2ccccc2)c1,-24%
Cc1nc(-c2coc3c(CN(C)C)c(O)ccc3c2=O)cs1,u
Cc1cc(C)n(CC(=O)N2c3ccccc3Sc3ccccc32)n1,-4%
COc1ccccc1CN1CCCC2(CCN(C(=O)c3cc(C(F)(F)F)cc(C(F)(F)F)c3)CC2)C1,-3%
COc1cc2nc(N3CCN(C(=O)OCc4ccccc4)C(C(=O)NC(C)(C)C)C3)nc(N)c2cc1OC (configuration not stated),u
OCCSCc1cc(Cl)cc(Cl)c1O,0%
O=[N+]([O-])c1cccc(/C=C2\CCC(/C=N/Nc3ccc4ccccc4n3)=C2N2CCOCC2)c1,-11%
CCCc1nc(Cl)c(C#N)c2c1CCCC2,-14%
O=C(Nc1ccccc1N1CCCCC1)c1ccccc1F,-21%
Cc1ccc(-c2cc(C(F)(F)F)n3ncc(C(=O)N4CCCc5ccccc54)c3n2)cc1,-8%
C/C(=N\NC(=O)C1CCCN(S(=O)(=O)c2ccccc2)C1)c1cccnc1 (configuration not stated),0%
CCOc1ccc(S(=O)(=O)N2CCN(C(=O)c3cccn3C)CC2)cc1,-5%
O=C(NNc1c(Cl)cc(Cl)cc1Cl)C1CCC1,32µM*
O=C(Nc1ccccc1Cl)c1cc(S(=O)(=O)N2CCCC(C(=O)O)C2)ccc1F (configuration not stated),-23%
COc1ccc(C(=O)Nc2ccc(F)cc2F)cc1OC,-13%
C/C(=N\Nc1nc2c(s1)CCCC2)c1ccccc1,-30%
CCSc1nnc(NC(=O)c2ccc(C)cc2)s1,-10%
Cc1cc(C)c2nc3s/c(=C/c4ccc5c(c4)n(C)c(=O)n5C)c(=O)n3c2c1,16µM*
COc1ccnc(Oc2ccc(F)cc2)c1C(=O)N/C=N/OCc1ccc(F)cc1Cl,-9%
COc1ccc(/C=C/C(=O)c2sc(-c3ccc(Cl)cc3)nc2C)cc1,-7%
O=C(NC(=S)Nc1ccc(S(=O)(=O)N2CCCCC2)cc1)c1cccs1,-24%
O=C(/C=C/c1ccc(OC2CSC2)cc1)c1ccccc1,-25%
O=C1OC(N2CCN(C(=O)C3CCCO3)CC2)c2ccccc21 (configuration not stated),0%
CCCCCN(CCCCC)C(=O)C(CCC(=O)O)NC(=O)c1ccc(Cl)c(Cl)c1 (configuration not stated),-5%&-6%
CCCCc1n[nH]c2c1C(=O)CC(C)(C)C2,-13%
c1ccc(Nc2ncnc3ccc(-c4ccc5c(c4)OCO5)cc23)cc1,-29%
CC(=O)c1cc2c(cc1NC(=O)c1cc3nc(C(C)C)cc(C(F)(F)F)n3n1)OCO2,u
O=C(O)CCCC(=O)N1CCN(c2cccc(Cl)c2)CC1,-25%
CC(C)CN(C[C@@H](O)[C@H](Cc1ccccc1)NC(=O)O[C@H]1CCOC1)S(=O)(=O)c1ccc(N)cc1,-5%
SMILES,HPGD block
CCOC(=O)CSc1cc(C(F)(F)F)nc(-c2ccccn2)n1,-3%
COc1cc(CCC(=O)OCC(=O)Nc2cccc(S(=O)(=O)N(C)C)c2)cc(OC)c1OC,-2%
C[C@@H](N1CCOCC1)[C@@](O)(c1ccccc1)c1ccccn1,-2%
O=S(=O)(c1ccccc1)N1CCC[C@@]2(CCN(c3ccccc3)C2)C1,-12%
COCCN(C(=O)Cc1cccs1)c1nnc(-c2cccnc2)s1,1%
COc1ccc2nc(SCC(C)=O)c(C#N)cc2c1,-20%
Cc1ccc(S(=O)(=O)ON2C(=O)c3cccc4cccc(c34)C2=O)cc1,u
COCCOc1nc2c(c(=O)n(C)c(=O)n2C)n1CCc1ccccc1,-8%
CN(C)CCNC(=O)c1c(O)c2c([nH]c1=O)CCCC2,-24%
CCOc1ccc(NC(=O)CCNS(=O)(=O)c2cccs2)cc1,-7%
COC(=O)CCC(=O)OC1(C)C(=O)C2=CN(c3ccc(OC)cc3)C(c3ccc(OC)cc3)=CC2=C(Br)C1=O (configuration not stated),-8%
Cc1ccc(NC(=O)CN2CC(C)SC2=NC2CCCCC2)cc1 (configuration not stated),-14%
Cc1ccc(-c2ccc(/C=N/N3C(=O)C4C5C=CC(C6CC56)C4C3=O)o2)c([N+](=O)[O-])c1 (configuration not stated),13µM*
Nc1nc(NCc2ccccc2)nc(Nc2ccc(F)cc2)c1[N+](=O)[O-],-17%
CCN(CC)CCNC1=NCCn2c1cc1cc(OC)ccc12,-25%
COc1ccc2c(c1)CCC(C)N2S(=O)(=O)c1ccc(C2CNC(=O)C2)cc1 (configuration not stated),5%
O=C(Cn1nnc(-c2ccccc2)n1)N/N=C/c1ccc(-c2ccc(Cl)cc2)o1,u
OCCNc1nc(Nc2ccccc2)nc(Nc2ccccc2)n1,-7%
COc1ccc(NC(=O)/C=C/c2ccc(C)o2)cc1S(=O)(=O)N1CCOCC1,-7%
C=CCOc1ccc(/C=N/O)cc1Cl,-19%
N/C(COc1ccc(Cl)cc1)=N\NS(=O)(=O)c1ccccc1,-10%
COc1ccc2cc(/C=N/NC(=O)c3c(Cl)cnn3C)c(Cl)nc2c1,u
O=c1cc(-c2ccccc2O)oc2c1ccc1ccccc12,-2%
CCC(=O)Nc1cccc(NC(=S)NC(=O)c2ccc(Cl)cc2Cl)c1,-4%
CCCCC1(C)OC(=O)C(=Cc2ccc(N(C)C)cc2)C(=O)O1 (configuration not stated),11µM*
CCCn1nc(-c2nnc(-c3ccc(C)c(C)c3)o2)c2ccccc2c1=O,-11%
O=c1/c(=C/c2ccc(CNS(=O)(=O)c3ccccc3)o2)sc2n1CCN=2,-8%
CN(C)C(=O)N1CCN(C(=O)c2ccccc2Sc2ccccc2C#N)CC1,-13%
CCOc1cc(/C=N/NC(N)=O)cc(Br)c1OCC(=O)Nc1ccccc1C,-5%

# Assay outcomes from PubChem BioAssay.
